Tgondii IFNg: T. gondii growth inhibition under IFN-gamma; Toxoplasma gondii growth in IFN-gamma-treated host cells; stronger effect = lower value; reference of the scale not given here; activity change, negative = inhibition, %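 (about 20 µM by stock and volumes)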; 3.8% of 69,000 active;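 active = below -70%; inconclusive = fit judged invalid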;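 also: host cells are HeLa cells infected with Toxoplasma gondii; parasite growth read as luciferase light; one replicate is shown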
* = called active by the depositor; i = inactive; u = inconclusive; & = joins results of further samples.

SMILES	Tgondii IFNg
C[C@H](CO)N1C[C@H](C)[C@H](CN(C)S(=O)(=O)c2ccc3c(c2)OCCCO3)OCc2cnnn2CCCC1=O	-24
O[C@H]([C@H](O)[C@@H]1CO1)[C@H]1CO1	8
Cc1cccc(C(=O)N2CCC3(CCC(C(=O)N4CCCC4)O3)CC2)n1 (stereo not drawn)	-23
Cn1c(NC(=O)CN2CCC(Oc3ccc(F)cc3)CC2)cc(=O)n(C)c1=O	-1
Cc1nn(C)c(C)c1CN(CC1CCCC1)C1CC1	0
O=S(=O)(c1ccccc1)N1CCC2(CC1)Nc1cc(F)ccc1-n1cccc12	21
Cc1nn(CCC#N)c(C)c1Oc1ccc(Cl)cc1	30
N#C[C@@H]1[C@H](c2ccccc2/C=C/c2ccccc2)[C@H](CO)N1S(=O)(=O)c1cccc(F)c1	-51
Cc1ccc(C(=O)N2CCn3cnc(COc4cccnc4)c3C2)cc1	-10
COc1ccc(CCn2c(=S)[nH]c3cc(C(F)(F)F)ccc32)cc1OC	-51
CC1CCCCC1NC(=O)CN1CCN(C)CC1 (stereo not drawn)	-3
CS(=O)(=O)c1ccc(C(=O)Nc2ccccc2Cl)cc1	23
COc1ccc(OC)c(CNC(=O)CCN2CCCCO2)c1	4
Cc1ncc(-c2ccc(NS(=O)(=O)c3ccc4c5c(cccc35)CC4)cc2)o1	3
COc1ccc(Br)cc1-c1nc(Cn2nnc(C(=O)Nc3ccccc3F)c2C)c(C)o1	48
CCN(CC)C(=O)CN1C(=O)C2CCC(=O)CC2C1=O (stereo not drawn)	14
COc1ccc(C)cc1NC(=O)Nc1ccc(-c2nc(-c3ccc(C)cc3C)co2)cc1	-66
CO[C@@H](CN(C)S(=O)(=O)c1ccc(F)cc1)[C@H](C)CN(Cc1ccccc1Cl)[C@H](C)CO	-24
CCN1c2ccc(C)cc2C(=O)NC12CCN(C(=O)c1ccc(C)cc1)CC2	23
Cc1ccccc1NC(=O)NCC(c1cccnc1)c1cn(C)c2ccccc12 (stereo not drawn)	209
Cc1ccc(CC2(NC(=O)/C=C/c3cnn(C)c3)CC2)cc1	33
COCCN1C[C@H]2CN(c3cc(OC)ncn3)CCC[C@]2(C(=O)O)C1	1
C[C@H](CO)N1C[C@H](C)[C@@H](CN(C)C(=O)Nc2cccc(C(F)(F)F)c2)OCc2cn(nn2)CCCC1=O	243
Cc1cc(F)ccc1S(=O)(=O)NCCc1csc(-c2cccc(F)c2)n1	55
S=C1C=C(N2CCCCC2)CC(c2cccs2)S1 (stereo not drawn)	56

(list continues)
SMILES	Tgondii IFNg
CN(C)c1ccc(C(=O)N2CCC3(CC2)COCCN(Cc2ccncc2)C3)cc1	-3
COc1ccc(NC(=O)CN2CCC3(CC2)N=C(c2ccc(F)cc2)C(=O)N3)cc1OC	-14
Cc1cccc(NC(=O)c2cc3ccccc3o2)c1	166
CCn1c(COc2ccc(Cl)cc2)nnc1SC1CCc2ccccc2C1=O (stereo not drawn)	54
COC(=O)CN1CC2(CCN(C(=O)CC3CC3)CC2)COc2ccccc2S1(=O)=O	2
O=C(NC1CCN(Cc2ccccc2)CC1)c1ccc2c(c1)OCCCO2	-39
O=C(c1ccc(F)cc1)N1CCC2(CCCN2c2ncccn2)CC1	-6
NS(=O)(=O)c1ccc(CNS(=O)(=O)c2ccccc2)cc1	-33
C[C@@H]1CN([C@H](C)CO)C(=O)c2ccccc2-c2ccccc2CO[C@@H]1CN(C)C(=O)[C@@H](Cc1ccccc1)N(C)C	-9
CCC(c1cccnc1)N(C)C(=O)Cc1ccc2nc(C)[nH]c2c1 (stereo not drawn)	-6
CCO[C@H]1CO[C@@]2(CCCN(C(=O)CS(C)(=O)=O)C2)C1	45
Cc1cc(C(F)(F)F)nn1CC(=O)O	54
CCn1c2ccccc2c2cc(NC(=O)c3cccc(OC)c3)ccc21	65
COc1ccc(CCC(=O)Nc2nc3ccc(Cl)cc3s2)cc1OC	-12
CC(C)(C)c1cc(NC(=O)CN2CCC(N3CCCC3=O)CC2)no1	0
O=C(Cn1ncc2c(N3CCCC3)ncnc21)Nc1ccccc1	13
Cc1cc(OS(=O)(=O)c2ccc(F)c(Cl)c2)n(-c2ccccc2)n1	24
COC(C)c1ccc(-c2ccc(OC(C)C)nn2)cc1 (stereo not drawn)	135
O=C1c2cccnc2CN1Cc1noc(C2CCCC2)n1	9
C=CCn1cc(CNCc2ccc(F)cc2Cl)c(C)n1	1
Cc1ccsc1C(=O)N1CCc2ncnc(-c3cccnc3)c2CC1	351
Cc1nc(CN2CCc3cnn(C)c3C2COCC2CC2)cs1 (stereo not drawn)	-4
Cc1cc(C)c2cc(C(=O)NCCSCc3c(F)cccc3Cl)[nH]c2c1	30
Cn1cc(CN2CCCC(C(=O)c3ccc4c(c3)OCO4)C2)c2ccccc21 (stereo not drawn)	-5
Cc1cnc(N2CCc3ncnc(-c4ccccc4)c3CC2)nc1	-4

Carrying on.
SMILES	Tgondii IFNg
CCOc1ccc(CCC(=O)N2CCCc3c(cnn3C)C2)cc1	26
O=C(c1ccc(Cl)c(Cl)c1)N1CCOCC1	7
C[C@@H]1CC=CC[C@H](c2ccccc2)NC(=O)[C@H](C)N(C)C(=O)c2ccccc2O1 (mixture of isomers)	-26
Cc1ccc(C(=O)NCCc2csc(-c3ccc(F)cc3)n2)cc1	-65
Cc1ccsc1C(=O)Nc1ccc(-c2nc(Cn3cccn3)c(C)o2)cc1	-13
Fc1cnc(N2CCc3ncnc(C4CC4)c3CC2)nc1	-42
CCCCCS(=O)(=O)CCCCCCCCCCn1c(-c2ccc(O)cc2)c(C)c2cc(O)ccc21	-79*
O=C1CC2(CCN(Cc3ccc(F)cc3)C2)CN1c1ccc2c(c1)OCO2 (stereo not drawn)	-38
CCN1C(=O)CCc2cc(NC(=O)c3cccc(C(F)(F)F)c3)ccc21	6
CCN(CC)[C@@H]1CCO[C@]2(CCN(C(=O)Cc3ccc(F)cc3)C2)C1	-9
Cc1c(C)c(C)c(C(=O)c2ccccc2C(=O)Nc2c(F)cccc2F)c(C)c1C	-62
COc1cc(OC)c(C(=O)NCc2ccccn2)cc1OC	7
Cc1ccc2c(c1)cc(S(=O)(=O)c1ccccc1)c(=O)n2CC(=O)NCCC(C)C	-29
CO[C@H]1CN(C)C(=O)c2ccc(NC(=O)c3ccno3)cc2OC[C@H](C)N(S(C)(=O)=O)C[C@H]1C	86
CCCc1ccc(S(=O)(=O)N2CCC[C@@H]2C(=O)NCCc2csc(-c3ccccc3)n2)cc1	-50
CCc1noc(-c2cc(=O)n(CC(=O)NCc3ccc(SC)cc3)c3ccccc23)n1	-4
Cc1noc(C)c1CN1CCCn2nnc(COCCO)c2C1	-5
C[C@H]1CN([C@@H](C)CO)C(=O)Cc2cc(NC(=O)CCC(F)(F)F)ccc2O[C@@H]1CN(C)CC1CC1	-25
CN(Cc1ccccc1)C1CCN(C(=O)c2ccoc2)C(C(=O)O)C1 (stereo not drawn)	2
Cc1csc(CN2C[C@H]3CCCO[C@H]3[C@H](N3CCCC3)C2)n1	-1
Cc1nc(NCC2CC2)nc2c1COCC21CCN(Cc2cccnc2)C1 (stereo not drawn)	2
CSc1nnc(-c2cnccc2C(F)(F)F)n1-c1ccc(Cl)cc1	-19
CCc1ccc(-c2noc(-c3c(O)c4ccccc4n(C)c3=O)n2)cc1	-3
Cc1cc(C(=O)Nc2ccc3c(c2)C(=O)N(C)[C@@H]2CC[C@H](CC(=O)NCc4ccc(-c5ccccc5)cc4)O[C@@H]2CO3)no1	-87*
O=S(=O)(c1cccc(F)c1)N1CC[C@@H]2[C@@H](CO)Nc3ccc(Br)cc3[C@@H]21	-14

New compounds follow:
SMILES	Tgondii IFNg
COc1cc(C(=O)Nc2cc(C)nn2Cc2cccnc2)nc(OC)n1	43
O=C(c1cc2cccnc2n(Cc2ccccc2)c1=O)N1CCN(c2ccc(F)cc2)CC1	-54
CC(=O)N1[C@H](CO)[C@H](c2ccccc2)[C@@H]1CN(C)S(=O)(=O)c1ccccc1	-6
O=C(Nc1cccc(Cl)c1)c1nc(Nc2ccccc2)c2ccccc2n1	50
COc1cc(NC(=O)c2c(O)c3cccnc3n(-c3ccccc3)c2=O)cc(OC)c1	16
COc1cccc(Cn2nc(C(=O)N3CCCC(O)C3)c3c2CCN(Cc2cccnc2)C3)c1 (stereo not drawn)	0
COC(=O)[C@@H]1C[C@@H](N(C)C)CN1Cc1cccc(-n2nc(C)cc2C)c1	-4
CCC(NS(=O)(=O)c1cnn(C(F)F)c1C)c1ccc(OC)cc1 (stereo not drawn)	-26
NCc1n[nH]c(=O)n1CCc1ccc(F)cc1	8
CC(=O)c1ccc(C(=O)N2CCN3CCN(C)C(=O)C3C2)s1 (stereo not drawn)	4
COc1ccc(/C=C/CNc2n[nH]c3nc(C)cc(C)c23)cc1	-9
CCc1ccccc1NC(=O)CSc1nc2[nH]c(=O)cc(O)c2s1	12
c1cc(CN2CCCC(c3ccn[nH]3)C2)ccn1 (stereo not drawn)	-32
COc1ccccc1C(=O)Nc1ccc(-c2nc(-c3ccccc3)co2)cc1	-26
COc1ccccc1/C=C/CN1CC2CCCN2C[C@H]1C (stereo partly drawn)	-79*
CC(CCCCC(=O)Nc1ccc(C(F)(F)F)cc1)NCCc1cnc[nH]1 (stereo not drawn)	13&11
CCOC(=O)c1cc(-c2ccc(Cl)cc2)n(-c2ccccc2)c1C	-50
CCc1cccc(NC(=O)COc2nc(C)nc3ccccc23)c1	-4
COc1cc(N2C[C@H]3CC=C(C)C[C@H]3C2)ncn1	-48
O=C(CN1C(=O)CCc2cc(Br)ccc21)Nc1nccs1	85
CCOc1ccc(NC(=O)CS(=O)CC(=O)NC2CCCc3ccccc32)cc1 (stereo not drawn)	-5
Cn1cccc1C(=O)NCc1cn2c(n1)CN(Cc1cccs1)CC2	108
O=C(C1CC=CC1)N1CCC2(CCN(Cc3cccc(F)c3)CC2)C1	-10
CCC1CCCCN1C(=O)CCNc1c(-c2ccc(C)cc2)nc2cnccn12 (stereo not drawn)	227
CN1CCN(C(=O)C[C@@H]2CC[C@H]3[C@@H](COC[C@H](O)CN3C(=O)c3ccccc3F)O2)CC1	11

(continued)
SMILES	Tgondii IFNg
Cc1ccc(C(=O)N2CCN(S(=O)(=O)c3cc4c5c(c3)CCC(=O)N5CCC4)CC2)cc1C	-45
Cc1ccc(Nc2nc(Nc3ccc(C)cc3)nc(SC3=NCCS3)n2)cc1	-4
COc1ccc(OCC(=O)Nc2cccc3cccnc23)cc1	11
CN(Cc1ccccc1)C1CCN(Cc2cnn(C)c2)C(C(=O)O)C1 (stereo not drawn)	24
Cc1cc(C)nc(N(C#N)Cc2cccc3ccccc23)n1	-22
c1coc(CN2CCC3OCCCC3(COCc3ccncc3)C2)c1 (stereo not drawn)	3
CNC(=O)C[C@@H]1CC[C@@H]2[C@H](COC[C@H](O)CN2Cc2ccccc2F)O1	37
Cc1ccc(C(=O)CSc2nc3ccccc3c(=O)[nH]2)cc1	21
CC(C)(C)C(=O)NC(=S)Nc1sc2c(c1C(N)=O)CCC2	64
CCCCNC(=O)CCC1N=C2c3ccccc3N=C(SCc3ccccc3Cl)N2C1=O (stereo not drawn)	4
C[C@H](CO)N1C[C@H](C)[C@H](CN(C)C(=O)Nc2cccc3ccccc23)OCc2cn(nn2)CCCC1=O	i
O=C(Nc1ccccc1Br)N1CCC2(CC1)Nc1ccccc1-n1cccc12	331
CCCCCCCCCCCCCCCC(=O)OC(CC(=O)O)C[N+](C)(C)C (stereo not drawn)	-10
Cc1nc(=O)[nH]c(C)c1CCC(=O)N1CCc2c(ncnc2N(C)C)C1	-6
CC(C)Cc1cc(C(=O)N(Cc2ccccn2)CC2CCCO2)n(C)n1 (stereo not drawn)	-3
CCOCCN1C[C@H]2COC[C@@H](C(=O)N3CCCO3)[C@H]2C1	-26
Cc1ccc(CNC(=O)CCC2CCCN(c3nc4ccccc4s3)C2)o1 (stereo not drawn)	11
COc1cccc2ccc(CN(C)Cc3cc(-c4ccccc4)no3)nc12	4
NCCc1nc(NCc2cn[nH]c2-c2cccs2)c2ccccc2n1	9
CN(Cc1nc2ccccc2n1C)C(=O)C(C)(C)NC(=O)c1cccs1	8
c1nc(NCCc2noc(C3CC3)n2)cc(N2CCCCC2)n1	8
CN(CCNC(=O)c1cccc2c1NCCC2)S(C)(=O)=O	11
CN(C)C(=O)COCC1CN(CC2CCOC2)Cc2ccnn2C1 (stereo not drawn)	-7
CN1CCC(CNC(=O)c2cc3c(Cl)cccc3n2C)C1 (stereo not drawn)	u
COc1ccc(C(=O)CN2CCN(C(=O)CCC3CCCC3)CC2)cc1	u
Cc1nc2ccccc2nc1CN(C)Cc1cnn(-c2ccccc2)c1	8
CCS(=O)(=O)N1CCC2(CC1)OC(=O)C(C)=C2C(=O)N1CCN(c2cccc(Cl)c2)CC1	43
COc1c(C)cnc(CN(C)C(=O)c2cn[nH]n2)c1C	4

2 records drawn at random from the list so far:
SMILES	Tgondii IFNg
CN(Cc1ccccc1)C1CCN(Cc2cnn(C)c2)C(C(=O)O)C1 (stereo not drawn)	24
COc1ccc(OCC(=O)Nc2cccc3cccnc23)cc1	11

A run of entries from further up, as a working copy:
SMILES	Tgondii IFNg
Cc1nc(=O)[nH]c(C)c1CCC(=O)N1CCc2c(ncnc2N(C)C)C1	-6
CC(C)Cc1cc(C(=O)N(Cc2ccccn2)CC2CCCO2)n(C)n1 (stereo not drawn)	-3
CCOCCN1C[C@H]2COC[C@@H](C(=O)N3CCCO3)[C@H]2C1	-26
Cc1ccc(CNC(=O)CCC2CCCN(c3nc4ccccc4s3)C2)o1 (stereo not drawn)	11
COc1cccc2ccc(CN(C)Cc3cc(-c4ccccc4)no3)nc12	4
NCCc1nc(NCc2cn[nH]c2-c2cccs2)c2ccccc2n1	9
CN(Cc1nc2ccccc2n1C)C(=O)C(C)(C)NC(=O)c1cccs1	8
c1nc(NCCc2noc(C3CC3)n2)cc(N2CCCCC2)n1	8
CN(CCNC(=O)c1cccc2c1NCCC2)S(C)(=O)=O	11
CN(C)C(=O)COCC1CN(CC2CCOC2)Cc2ccnn2C1 (stereo not drawn)	-7
CN1CCC(CNC(=O)c2cc3c(Cl)cccc3n2C)C1 (stereo not drawn)	u
COc1ccc(C(=O)CN2CCN(C(=O)CCC3CCCC3)CC2)cc1	u
Cc1nc2ccccc2nc1CN(C)Cc1cnn(-c2ccccc2)c1	8
CCS(=O)(=O)N1CCC2(CC1)OC(=O)C(C)=C2C(=O)N1CCN(c2cccc(Cl)c2)CC1	43
COc1c(C)cnc(CN(C)C(=O)c2cn[nH]n2)c1C	4

Screening results deposited in PubChem by Broad Institute.

The list is partial (hit frequency here may not be typical).
